# Bioassay records: PubChem BioAssay, National Center for Advancing Translational Sciences (NCATS)
# Vif-APOBEC3G blk: Vif-A3G binding inhibition | Q9HC16 | HeLa A3G-eYFP + Vif (tagged APOBEC3G with the HIV-1 protein that degrades it), YFP fluorescence, overnight | Potency, µM (titrated, usually from 46.1 µM), for inactives: at the top dose activity, negative = active, usual class: inhibitors | 410,000 tested, 0.076% active | AID 602310;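 further: potency means the concentration at half of the fitted maximal effect; on the % scale 0 is the no-effect control and ±100 the full control effect; nearly all actives have a fitted effect of over 60% in size; hits raise eYFP signal because A3G escapes Vif-driven loss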
#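 Read-out is eYFP fluorescence (Ex 488/Em 500-530) from Vif-expressing HeLa A3G-eYFP cells; more signal means A3G escaped Vif-mediated degradation. Cells plated overnight, compound pinned in, incubated overnight at 37 deg C.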
# LDHA inh: inhibitors of human lactate dehydrogenase A. P00338. 480,000 tested, 0.15% active. AID 1347041. purified LDHA, NADH/diaphorase-resazurin fluorescence; stronger effect = lower value. activity change, % (values are at about 110 or 230 µM); in the data active means activity change below about -30%; inconclusive means mostly about -25% to -30%;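 further: plate controls were DMSO wells for no effect and wells without enzyme for full effect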
#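 Enzyme activity of human lactate dehydrogenase 5 (2 nM; 0.06 mM NADH, 0.2 mM pyruvate, 5 min, RT) is measured via a resazurin/diaphorase fluorescence readout of residual NADH.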
# PI4K2A inh: blocks human PI4K2A kinase activity. 420,000 tested, 0.13% active. AID 1346378. purified PI4K2A, ADP-Glo luminescence, 1 h; stronger effect = lower value. Q9BTU6. activity change, negative = inhibition, % at 76.9 µM; in the data active means activity change below about -50%; inconclusive means mostly about -30% to -49%;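 further: -100% = wells without enzyme as full effect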
#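 ADP-Glo luminescence measured ADP generated by PI4K2A enzyme (4 ug/mL before mixing) with 1.2 mM PI substrate (pre-mix) and 300 microM ATP (pre-mix). Tris pH7.5 buffer with MgCl2, Triton X-100; 1 h reaction at ambient temperature.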
# USP1-UAF1 inh: inhibitors of human USP1/UAF1 deubiquitinase; O94782; recombinant USP1/UAF1, Ub-Rhodamine cleavage fluorescence; Potency, µM (doses to about 57.1 µM), without a hit: at the highest dose activity change, negative = inhibition, usual class: inhibitors; 390,000 tested, 0.23% active; AID 743255; further: potency means the concentration at half of the fitted maximal effect; on the % scale 0 is the no-effect control and ±100 the full control effect; nearly all actives have a fitted effect of over 60% in size; inactives centre near -12
# Target sequence (O94782 whole entry, looked up): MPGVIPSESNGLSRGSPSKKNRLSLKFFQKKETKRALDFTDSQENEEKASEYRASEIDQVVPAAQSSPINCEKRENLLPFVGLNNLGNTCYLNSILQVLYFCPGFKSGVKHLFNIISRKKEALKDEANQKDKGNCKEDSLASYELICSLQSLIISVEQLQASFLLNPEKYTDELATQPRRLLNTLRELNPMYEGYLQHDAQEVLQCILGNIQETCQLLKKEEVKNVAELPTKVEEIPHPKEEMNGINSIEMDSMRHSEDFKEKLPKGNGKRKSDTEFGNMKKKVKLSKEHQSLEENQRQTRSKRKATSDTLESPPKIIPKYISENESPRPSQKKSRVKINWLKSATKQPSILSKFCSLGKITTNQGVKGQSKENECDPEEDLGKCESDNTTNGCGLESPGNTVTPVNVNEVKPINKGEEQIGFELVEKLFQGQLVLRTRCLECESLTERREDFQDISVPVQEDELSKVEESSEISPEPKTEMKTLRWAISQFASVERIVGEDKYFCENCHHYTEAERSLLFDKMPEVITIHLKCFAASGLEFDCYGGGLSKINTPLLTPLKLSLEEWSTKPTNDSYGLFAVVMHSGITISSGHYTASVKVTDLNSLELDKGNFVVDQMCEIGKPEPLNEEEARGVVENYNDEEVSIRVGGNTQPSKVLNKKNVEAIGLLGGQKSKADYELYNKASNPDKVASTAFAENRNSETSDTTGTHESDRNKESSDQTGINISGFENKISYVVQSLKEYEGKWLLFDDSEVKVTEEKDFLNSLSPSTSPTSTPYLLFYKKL
#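 USP1/UAF1 complex (1 nM) preincubated 15 min at room temperature with compound, then Ub-Rho substrate (150 nM final) added. Kinetic fluorescence at 480/540 nm over 6 reads at 60 s intervals; 50 mM HEPES pH 7.8, 0.5 mM EDTA, 0.1 mg/ml BSA, 1 mM TCEP, 0.01% Tween-20.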
# Vif-APOBEC3F blk: Vif-A3F binding inhibition. HeLa A3F-eYFP + Vif (tagged APOBEC3F with the HIV-1 protein that degrades it), YFP fluorescence increase. Potency, µM (highest dose often 46.1 µM), for inactives: at the top dose activity, negative = active. 390,000 tested, 0.2% active. AID 602313; further: potency means the concentration at half of the fitted maximal effect; % of control where 0% means no effect; nearly all actives have a fitted effect of over 65% in size
#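 HeLa cells stably expressing A3F-eYFP plus Vif, plated and incubated overnight at 37 deg C, then exposed to compounds overnight at 37 deg C. Blocked degradation read as raised yellow fluorescence (Ex 488/Em 500-530).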
# GRP78 ERSR act: ER stress response induction in glioma; U87-MG GRP78 promoter luciferase reporter, 16 h; Potency, µM, inactives show top-dose activation, usual class: activators; 420,000 tested, 0.02% active; AID 602332; further: potency means the concentration at half of the fitted maximal effect; series mostly up to about 76 µM; % of control where 0% means no effect; nearly all actives have a fitted effect of over 35% in size
#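 Stably transfected U87-MG glioma cells carrying a GRP78-based luciferase sensor; 16 h compound incubation. Luminescence end-point read 10 min after Bright-Glo addition at room temperature.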
# IDH1 R132H inh: blocks human mutant IDH1 R132H enzyme | Potency, µM (titrated, usually from 76.6 µM), without a hit: top-dose activity change, negative = inhibition, most hits filed as inhibitors | IDH1-R132H enzyme, NADPH consumption, diaphorase/resazurin fluorescence | 390,000 tested, 0.093% active | O75874; further: potency means the concentration at half of the fitted maximal effect; on the % scale 0 is the no-effect control and ±100 the full control effect; nearly all actives have a fitted effect of over 65% in size
#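 IDH1-R132H (0.5 ug/mL dispensed) in pH 7.5 Tris buffer was preincubated 30 min with compound, then given a substrate mix of 0.016 mM NADPH and 2 mM alpha-KG for 80 min at room temperature; remaining NADPH was read by diaphorase/resazurin fluorescence.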
# TrxR1 substrate: rat thioredoxin reductase 1 substrate activity; Potency, µM (doses to about 114 µM), for the others: at the highest dose activity change, negative = substrate turnover; purified TrxR1 substrate turnover, NADPH consumption readout; O89049; 390,000 tested, 0.01% active; further: potency means the concentration at half of the fitted maximal effect; on the % scale 0 is the no-effect control and ±100 the full control effect; nearly all actives have a fitted effect of over 50% in size
#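 Rat TrxR1, dispensed at 90 nM, was prereduced with 400 uM NADPH (final) for 5 min at ~22 deg C, then incubated with compound 15 min before 400 uM selenite. A first-read NADPH fluorescence drop versus no-compound background flagged substrates.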
# Active calls of the source: *; ? = inconclusive; nt = no result given; & = joins results of further samples; [ ] = another dose, or the depositor's remark. Unless noted, the call rests on the fitted dose curve; in most records, active means well fitted curve in the direction sought with a large enough effect; inconclusive means small, poorly fitted or top-dose-only effect, or another doubt; inactive means no such curve, though single readings can be large; an effect the other way counts as inactive or inconclusive.
1. COc1ccc(CN2C(=O)c3cccnc3C2=O)cc1S(=O)(=O)NCc1ccccc1
2. O=C1Nc2c(c(=O)[nH]c(=O)n2-c2ccc(Cl)cc2)C1(NS(=O)(=O)c1ccccc1)C(F)(F)F (stereo unspecified)
3. O=C(Nc1ccc(F)cc1)C1CCN(c2nc3ccccc3nc2C(F)(F)F)CC1
4. CCCCCOc1ccc(C(=O)C(c2ccccc2)N2CCOCC2)cc1 (stereo unspecified)
5. O=C1OC(c2ccc(Br)cc2)=N/C1=C\N1CCCCC1
6. COc1ccc(NC(=O)Cn2c(=O)n(Cc3ccccc3)c(=O)c3sc4ccccc4c32)cc1
7. COc1ccc(CCn2c(=O)c3cccnc3n(CC(=O)Nc3c(C)cccc3C)c2=O)cc1OC
8. COCCCN1C(=O)C(=O)/C(=C(/O)c2ccc3c(c2)CC(C)O3)C1c1cccnc1 (stereo unspecified)
Assay by compound	1	2	3	4	5	6	7	8
Vif-APOBEC3G blk	2%	0%	5%	0%	3%	-2%	1%	5%
LDHA inh	-9	-3	-2	1	-17	-10	2	2
PI4K2A inh	0	1	8	-7	-2	0	-6	-1
USP1-UAF1 inh	-15%	-11%	-25%	-11%	-16%	?	-13%	2%
Vif-APOBEC3F blk	-18%	-4%	-14%	-1%	0%	1%	2%	-4%
GRP78 ERSR act	-12%	-5%	1%	3%	0%	-1%	-3%	-1%
IDH1 R132H inh	2%	3%	0%	2%	1%	-1%	4%	13%
TrxR1 substrate	13%	3%	-1%[57.1 µM]	-8%	0%	6%	-9%	-12%

9. COc1cc(OC)cc(-n2c(=O)c3sccc3n(Cc3ccc(F)cc3)c2=O)c1
10. O=C(Cc1cccs1)NC(c1ccccc1)c1ccccc1
11. Cn1c(SCC(=O)NCCc2ccccc2)ncc(C(=O)Nc2ccc(F)cc2)c1=O
12. CCOC(=O)CSc1ccc2nnc(-c3ccncc3)n2n1
13. COc1ccc(OC)c(NC(=O)c2oc3c(c2C)-c2nn(Cc4ccc(Cl)cc4)cc2CC3)c1
14. O=S(=O)(c1ccccc1)c1nnn2c1nc(NCc1ccc(F)cc1)c1sccc12
15. COc1ccc(Cn2c(=O)c3cccnc3n(CC(=O)Nc3c(C)cc(C)cc3C)c2=O)cc1
16. Cc1noc(NS(=O)(=O)c2ccc(N3C(=O)c4ccccc4C3=O)cc2)c1C
Assay by compound	9	10	11	12	13	14	15	16
Vif-APOBEC3G blk	nt	-1%	0%	-6%	-3%	-2%	4%	0%
LDHA inh	-8	-2	-12	2	10	-2	1	-12
PI4K2A inh	-5	2	-5	-9	3	-5	-3	-3
USP1-UAF1 inh	-7%	-16%	-18%	-15%	?	-2%	?	-14%
Vif-APOBEC3F blk	nt	-4%	-45%	3%	1%	2%	-4%	-6%
GRP78 ERSR act	nt	4%	-2%	-1%	-4%	-4%	-1%	-3%
IDH1 R132H inh	nt	-1%	5%	1%	-3%	0%	5%	7%
TrxR1 substrate	-5%	7%	28%	17%	4%	6%	3%	8%

17. Cc1ccc(S(=O)(=O)NC2(C(F)(F)F)C(=O)Nc3c2c(=O)[nH]c(=O)n3-c2ccccc2)cc1 (stereo unspecified)
18. COC(=O)c1sc2[nH]c(=S)n(N)c(=O)c2c1C
19. CCOc1cc2[nH]c(=S)n(CCCN3CCOCC3)c(=O)c2cc1OCC
20. CCc1cc2c(cc3c(=O)n(CC(=O)NC(C)c4ccccc4)ncn32)s1 (stereo unspecified)
21. Cc1ccc(C(=O)c2cn(CC(=O)Nc3ccc(C(C)C)cc3)c3nc(C)ccc3c2=O)cc1
22. CCc1nc(N2CCCCC2)c2oc3ccccc3c2n1
23. Cc1ccc(NC(=O)Cn2c(=O)n(Cc3ccccc3)c(=O)c3sc4ccccc4c32)cc1
24. O=C(Nc1ccc(F)cc1)c1cc(-c2ccccn2)nc2c(Cl)cccc12
Assay by compound	17	18	19	20	21	22	23	24
Vif-APOBEC3G blk	4%&0%	1%	1%	1%	-10%	-15%	2%	-4%
LDHA inh	1&-3	-5	-3	-13	-16	-1	-8	1
PI4K2A inh	-10&1	-3	-2	-2	1	-2	-1	-1
USP1-UAF1 inh	-21%&-10%	-4%	-14%	-27%	-16%	-16%	-32%	-4%
Vif-APOBEC3F blk	-2%&-11%	-7%	-10%	1%	-17%	-21%	?	-19%
GRP78 ERSR act	-7%&-1%	-3%	-1%	-2%	-4%	-5%	3%	-4%
IDH1 R132H inh	5%&0%	21%	1%	0%	2%	10%	-5%	-12%
TrxR1 substrate	-3%[11.4 µM]	7%[57.1 µM]	6%[57.1 µM]	3%	2%	0%	0%	11%

# Continued, overlapping the part above by 4 compounds.
21. Cc1ccc(C(=O)c2cn(CC(=O)Nc3ccc(C(C)C)cc3)c3nc(C)ccc3c2=O)cc1
22. CCc1nc(N2CCCCC2)c2oc3ccccc3c2n1
23. Cc1ccc(NC(=O)Cn2c(=O)n(Cc3ccccc3)c(=O)c3sc4ccccc4c32)cc1
24. O=C(Nc1ccc(F)cc1)c1cc(-c2ccccn2)nc2c(Cl)cccc12
25. CC(C)C(=O)Nc1cccc(C(=O)NCc2ccc(S(N)(=O)=O)cc2)c1
26. CCOC(=O)c1c(NC(=O)C(C)Oc2ccccc2F)sc(C(C)=O)c1C (stereo unspecified)
27. COC(=O)CSc1ncc2c(n1)-c1ccccc1N(Cc1cccc(F)c1)S2(=O)=O
28. COc1ccc(-n2ccnc(NCc3ccccc3OC)c2=O)cc1
29. Cc1ccc(-c2nc3cc(NC(=O)c4cc5ccccc5o4)ccc3o2)cc1
30. CC(=O)Nc1ccc(NC(=O)c2cc3c(=O)n(Cc4cccnc4)ccc3nc2C)cc1
31. CC(=O)N(CCC(c1ccco1)C(C)C)Cc1ccc(OC(C)C)cc1 (stereo unspecified)
32. Cc1ccc(CNC(=O)c2sc3ncnc(N(C)C4CCCCC4)c3c2C)cc1
Assay by compound	21	22	23	24	25	26	27	28	29	30	31	32
Vif-APOBEC3G blk	-10%	-15%	2%	-4%	-1%	0%	0%	0%	3%	0%	1%	nt
LDHA inh	-16	-1	-8	1	-8	1	-1	-2	-7	-12	1	0
PI4K2A inh	1	-2	-1	-1	-1	1	6	7	-5	1	7	-4
USP1-UAF1 inh	-16%	-16%	-32%	-4%	-15%	-19%	?	-21%	-3%	-4%	-32%	-18%
Vif-APOBEC3F blk	-17%	-21%	?	-19%	-5%	1%	4%	0%	-4%	3%	0%	nt
GRP78 ERSR act	-4%	-5%	3%	-4%	-4%	-3%	-4%	1%	2%	-2%	-2%	nt
IDH1 R132H inh	2%	10%	-5%	-12%	-1%	6%	0%	0%	-7%	-23%	4%	nt
TrxR1 substrate	2%	0%	0%	11%	5%	4%	9%[57.1 µM]	4%[57.1 µM]	38%[activator]	-1%[57.1 µM]	-4%	-5%[57.1 µM]

33. CCOC(=O)c1c(NC(=O)CCCOc2ccc(C)cc2)sc2c1CCC(C)C2 (stereo unspecified)
34. O=c1c2sc3ccccc3c2n(Cc2cccc(C(F)(F)F)c2)c(=O)n1Cc1ccco1
35. O=C(Cn1c(=O)n(Cc2ccco2)c(=O)c2ccccc21)Nc1cccc(Cl)c1
36. CCN(CC)S(=O)(=O)c1ccc(OC)c(NC(=O)Cn2cnc3c2c(=O)n(C)c(=O)n3C)c1
37. C=CCn1c(SCC(C)=O)nc2scc(-c3ccc(C)o3)c2c1=O
38. COc1ccc(-c2cc(C(F)(F)F)c(C#N)c(SCC(=O)Nc3cccc(C)c3)n2)cc1
39. CCOC(=O)N1CCN(C(=O)CNC2CCCCCCC2)CC1
40. COCCn1c(=S)[nH]c2sc3c(c2c1=O)CCCC3
Assay by compound	33	34	35	36	37	38	39	40
Vif-APOBEC3G blk	0%	-3%	-2%	0%	-8%	-9%	-1%	-10%
LDHA inh	-5	0	-2	3	-7	-8	-18	0
PI4K2A inh	5	4	-1	-3	-1	2	1	1
USP1-UAF1 inh	-15%	-22%	-16%	-17%	0%	?	-24%	-25%
Vif-APOBEC3F blk	2%	-8%	-5%	-3%	-7%	-3%	-3%	-2%
GRP78 ERSR act	8%	-1%	-3%	1%	11%	-2%	-5%	1%
IDH1 R132H inh	16%	-19%	1%	8%	1%	-8%	-2%	3%
TrxR1 substrate	4%	5%	-3%	12%	6%[57.1 µM]	20%	2%	1%

41. CCOC(=O)CSc1nc2ccccc2n2c(C)nnc12
42. CCc1nc(SCC(=O)NCC2CCCO2)c2c(=O)n(C)c(=O)n(C)c2n1 (stereo unspecified)
43. O=S(=O)(Nc1cccnc1)c1ccc(Br)c2ccccc12
44. CCOc1cc(-c2nc3cc(C)ccn3c2NCC2CCCO2)ccc1O (stereo unspecified)
45. CCn1c(Cc2ccccc2)nnc1SCC(=O)Nc1ccc(S(N)(=O)=O)cc1
46. O=C(NC1CCCCCCC1)c1cnccn1
47. CN(Cc1ccc(F)cc1)S(=O)(=O)c1nnc(NC(=O)c2ccccc2)s1
Assay by compound	41	42	43	44	45	46	47
Vif-APOBEC3G blk	-15%&0%	5%	1%	0%	-1%	1%	4%&3%
LDHA inh	1&-2	-2	0	0	-17	-11	-8&-11
PI4K2A inh	2&-1	-1	1	6	0	2	0&1
USP1-UAF1 inh	-23%&-11%	-6%	-22%	-1%	-12%	2%	?
Vif-APOBEC3F blk	-22%&1%	0%	1%	-3%	2%	0%	-6%&6%
GRP78 ERSR act	4%&-2%	-1%	3%	-1%	-1%	-3%	2%&-1%
IDH1 R132H inh	-13%&-3%	-4%	5%	1%	-2%	0%	20%&24%
TrxR1 substrate	2%&-7%	2%	2%	40%[activator]	10%	7%	1%&6%

# Not all compounds are listed; rates above refer to the full screens.
